GALR2 ag: activates the human galanin receptor 2. O43603. GALR2-expressing cells, agonist activation read-out. activation, %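 (tested at 5 µM)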. actives 0.48% (n = 140,000). AID 803;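 active = above mean plus 3 SD of all compounds, about 5% in these data, not always enough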;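 note: 0% = vehicle buffer wells and 100% = reference agonist at full effect; tested in CHO reporter cells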
Target sequence (O43603 whole entry, looked up): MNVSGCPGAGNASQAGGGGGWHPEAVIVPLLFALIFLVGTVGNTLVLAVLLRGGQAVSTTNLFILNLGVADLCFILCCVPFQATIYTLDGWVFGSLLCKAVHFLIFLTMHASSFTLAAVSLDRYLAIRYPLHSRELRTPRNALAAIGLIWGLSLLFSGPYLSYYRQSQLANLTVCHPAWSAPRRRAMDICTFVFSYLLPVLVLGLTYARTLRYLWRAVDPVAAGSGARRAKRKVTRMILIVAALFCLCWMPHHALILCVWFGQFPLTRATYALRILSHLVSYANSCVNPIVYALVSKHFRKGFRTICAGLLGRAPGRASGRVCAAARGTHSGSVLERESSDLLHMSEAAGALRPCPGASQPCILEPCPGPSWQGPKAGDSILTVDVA
HSV augment: increases HSV replication in cells | HSV replication augmentation in cells, fold increase | maximum fold increase | actives 0.005% (n = 220,000);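 active = peak rise of 1.5-fold or more in the series; tested in PC3 cells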;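 note: first round at 10 µM; read as green reporter fluorescence; hits show the peak of a series up to 25 µM; 1 = signal of infected wells without compound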
Insulin prom inh: TRM-6 insulin promoter activity inhibition. AID 1273. TRM-6 cells (human fetal islet line), insulin promoter-eGFP reporter, imaging; reporter expression induced with tamoxifen. inhibition, % at 2 µM. actives 0.9% (n = 130,000);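 active = inhibition above the mean plus 3 SD, with well images judged a real hit on visual review, cut at about 60% in these data, passing the limit was not always enough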
PKD1 kinase inh: PKD1 (human) kinase inhibition. Q15139. PKD1 kinase fluorescence polarization assay. inhibition, %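 (about 10 µM by stock and volumes)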. actives 0.056% (n = 200,000);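 active = inhibition of 50% or more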;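 note: controls were vehicle for no effect and a reference inhibitor for full effect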
RGS16-Gao HTS: RGS16-Galphao interaction regulator (human); O15492+P09471; bead-based flow cytometry RGS16-Galphao binding, fluorescence; actives lie on both sides; binding response (% of control), % at 10 µM; actives 0.38% (n = 220,000);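 active = below 25% or above 175%, edge rows of some plates excepted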;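 note: Galphao activated by GDP with aluminum fluoride before binding; 100% = wells without compound and 0% = beads without RGS; some results beyond the cut were filed as inactive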
Target sequence (O15492 whole entry, looked up): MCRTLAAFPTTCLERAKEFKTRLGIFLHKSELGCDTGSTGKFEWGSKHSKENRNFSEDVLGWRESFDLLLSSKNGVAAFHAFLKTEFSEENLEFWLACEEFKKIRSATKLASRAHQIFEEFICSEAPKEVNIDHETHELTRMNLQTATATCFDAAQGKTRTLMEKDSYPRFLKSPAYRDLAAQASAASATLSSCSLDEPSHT
Target sequence (P09471 whole entry, looked up): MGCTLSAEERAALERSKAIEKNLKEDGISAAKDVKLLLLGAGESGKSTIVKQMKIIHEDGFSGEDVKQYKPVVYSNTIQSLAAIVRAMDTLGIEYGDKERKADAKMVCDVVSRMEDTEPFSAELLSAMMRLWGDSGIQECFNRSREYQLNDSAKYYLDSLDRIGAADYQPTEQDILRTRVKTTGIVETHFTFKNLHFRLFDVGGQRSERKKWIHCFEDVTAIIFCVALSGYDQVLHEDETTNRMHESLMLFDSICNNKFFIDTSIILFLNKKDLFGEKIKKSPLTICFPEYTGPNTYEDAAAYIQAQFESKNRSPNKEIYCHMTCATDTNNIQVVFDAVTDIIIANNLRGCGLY
Insulin prom inh cell count: further read-out of Insulin prom inh, marked with its call; normalized cell count, %; measured here: cell count, toxicity; reference of the scale not given here;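 cells exposed to compound for 48 h; stained nuclei by imaging scaled within each plate; lower means fewer cells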
HSV augment primary fold: second read-out of HSV augment, no call of its own (marks repeat the call); fold increase; compound at 10 µM; measured here: primary screen fold increase 10 uM; tested in PC3 cells;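 GFP signal in the first replicate; 1 = infected wells without compound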
* hit, by the source's call; i = inactive; nt = no result given.

molecule	GALR2 ag	HSV augment	HSV augment primary fold	Insulin prom inh	Insulin prom inh cell count	PKD1 kinase inh	RGS16-Gao HTS
CC(C)OC(=O)c1cc2c(ccn2-c2ccc(F)cc2)n1CC(=O)N1CCN(C(=O)c2ccco2)CC1	nt	i	0.85	nt	nt	nt	100
O=C1CC(SC(=Nc2ccccc2)Nc2ccccc2)C(=O)N1c1ccc(Cl)cc1 (centres undefined)	-1.0	i	0.83	0	118	-6	111
O=C(COc1ccccc1Cl)OCC(=O)N1CCN(S(=O)(=O)c2ccccc2)CC1	-1.4	i	1	55	64	2	101
CCc1ccc(-c2nc(CSCC(=O)N3CCN(c4ccccn4)CC3)c(C)o2)cc1	-3.3	i	0.85	-86	127	3	102
CC(C)(C)Cn1c(=O)[nH]c(=O)c2cc([N+](=O)[O-])cnc21	-3.5	i	1.1	-13	97	16	52
N#CC1=C(N)Oc2n[nH]c(-c3cccs3)c2C1c1ccoc1 (centres undefined)	-2.8	i	1	52	160	14	103
CCCOC(=O)CC1C(=O)NCCN1Cc1ccc(F)cc1 (centres undefined)	-4.1	nt	nt	nt	nt	-7	104
COc1cc([N+](=O)[O-])cc(/C=N/NC(=O)CSc2nnc(-c3ccccc3)n2C)c1O	nt	i	0.94	nt	nt	nt	98
COC(=O)c1ccccc1NC(=O)C(C)Oc1ccccc1 (centres undefined)	-3.5	i	0.88	-4	188	-3	89
CC(=O)Oc1cc2c(C(=O)NCCN3CCOCC3)c(C)oc2c2ccccc12	-0.2	i	0.88	-50	95	5	185
Clc1nccnc1-c1ccccc1	0.0	i	1	7	90	0	101
Cc1cc2ccccc2n1CCNCc1c(C(=O)N2CCOCC2)nc2ccccn12	nt	i	1.1	nt	nt	nt	102
COC(=O)CC1=NN(c2ccccc2)C(=O)C1	nt	i	0.98	nt	nt	-6	107
CCOc1ccc(/C=N/NC2=NCCCCC2)cc1	nt	i	1	nt	nt	-11	97
CC12CC(NC(=O)N1c1ccc(C(=O)N3CCN(c4ccccn4)CC3)cc1)c1ccccc1O2 (centres undefined)	-2.0	i	1	nt	nt	2	102
COc1ccccc1N(C)S(=O)(=O)c1ccc(C(=O)Nc2ccc3nc(C)sc3c2)cc1	-1.1	i	0.64	3	121	8	108
Cc1nc2ccccc2c(=O)n1/N=C/c1cccnc1	-0.9	i	0.8	35	89	-2	103
COc1cc(OC)cc(C(=O)Nn2cc(C(=O)Nc3c(F)cccc3F)c3ccccc3c2=O)c1	-0.7	i	0.9	45	106	5	101
COc1ccc(C(=O)N2C(=S)NC(=O)/C2=C\c2ccc(C)cc2)cc1	-1.3	i	1	-15	102	1	97
COc1cccc(N2CCN(C(=O)c3nc4nc(C)cc(C)n4n3)CC2)c1	nt	i	0.82	nt	nt	0	96
O=C(Nc1ccc2nc(-c3ccc(Br)o3)[nH]c2c1)c1ccco1	-1.2	i	0.89	nt	nt	1	83
CC(=O)N1CCc2cc(Br)cc(S(=O)(=O)CCC(=O)Nc3c(C)n(C)n(-c4ccccc4)c3=O)c21	nt	i	0.85	67	120	-2	94
CCC(C)Nc1nc(Cl)nc(N(C#N)CN2C(=O)c3ccccc3S2(=O)=O)n1 (centres undefined)	nt	i	0.96	-7	73	0	104
COc1cccc(NC(=O)N2CCC(C(=O)Nc3ccc(C)cc3C)CC2)c1	-3.4	i	0.75	nt	nt	3	106
COC(=O)c1ccccc1N1C(=O)C2C(C1=O)[C@H]1C=C[C@@H]2C1 (some centres undefined)	-0.6	i	0.95	nt	nt	-5	102
COc1cc(C(=O)NCc2ccc(-c3nc4ccccc4s3)cc2)cc(OC)c1OC	-0.6	i	0.96	2	141	8	102
Clc1ccc(OCCn2cnc3ccccc32)c(Cl)c1	-2.0	i	0.96	-460	86	-6	101
O=C(Nc1cccc2ccccc12)NC1CCCc2ccccc21 (centres undefined)	3.3	i	1.1	-21	96	2	93
CCN(C(=O)CSc1cc(C)c2cccc(C)c2n1)C1CCS(=O)(=O)C1 (centres undefined)	nt	i	0.99	nt	nt	2	102
CCc1n[nH]c(=S)n1/N=C/c1ccc(N(CC)CC)cc1	nt	i	0.8	nt	nt	8	88
O=C(NC(=S)NCCc1ccccn1)c1ccccc1	nt	i	0.94	8	73	-2	88
Cc1ccc(NC(=O)c2cc(N3CCOCC3)nc3ccccc23)cc1	-2.3	i	0.96	-173	67	-14	104
O=C(Nc1ccc(S(=O)(=O)Nc2nccs2)cc1)c1cc(-c2ccncc2)nc2ccccc12	nt	i	0.97	nt	nt	nt	102
O=C(NCCSc1ccccn1)c1ccc(Cl)cc1Cl	nt	i	1.1	8	82	-4	101
CCC(=O)Nc1c(C#N)c2nc3ccccc3nc2n1C1CCCCC1	0.3	i	0.93	32	125	2	101
COCCn1nnnc1CN(Cc1ccco1)Cc1cc2cc3c(cc2[nH]c1=O)OCO3	-1.6	i	1.1	9	126	-13	98
Nc1c(C(=O)NC2CC2)c2nc3ccccc3nc2n1-c1ccc2c(c1)OCO2	-0.6	i	0.82	-44	151	4	101
CC(=O)c1cccc(NC(=O)C2CCCN2S(=O)(=O)c2cccc3nsnc23)c1 (centres undefined)	-3.0	i	0.92	nt	nt	4	101
Cc1ccc(-n2c(-c3ccccc3)c[n+]3c2CCc2ccccc2-3)c(C)c1	nt	i	0.79	-80	67	5	107
O=C(N/N=C/c1ccco1)C12CC3CC(CC(C3)C1)C2	nt	i	1	nt	nt	-7	99
CC(C)Cc1nnc(NC(=O)CSc2nc(O)c(Cc3ccccc3)c(=O)[nH]2)s1	nt	i	1	nt	nt	5	102
CCOC(=O)c1ccc(COC(=O)CCc2nc3ccccc3[nH]c2=O)o1	1.6	i	0.82	22	82	-8	131
Cc1nn(-c2ccc(F)cc2)c(C)c1/C=C/C(=O)N1CCNC(=O)C1	nt	i	1.1	21	98	1	102
Cc1cc2c(cc1C)NC1(C(=O)Nc3ccccc31)C1=C(CC(C)(C)CC1=O)N2 (centres undefined)	0.4	i	1	-76	50	1	102
COc1ccc(N2CCN(C(=O)CN3C(=O)C4CC=CCC4C3=O)CC2)cc1 (centres undefined)	-0.2	i	0.92	42	31	-3	106
COc1ccc(-c2ccc(C#N)c(SCC(=O)NCCc3ccccc3)n2)cc1OC	0.2	i	1	nt	nt	-2	123
CCn1ccnc1C(O)c1cccc(OC)c1 (centres undefined)	-0.4	i	0.76	nt	nt	-10	98
O=C(NCc1cccnc1)c1cc([N+](=O)[O-])ccc1N1CCOCC1	nt	i	0.98	nt	nt	-3	102
Fc1ccccc1Cc1noc(CN2CCC(OCc3cccnc3)CC2)n1	nt	i	1.4	nt	nt	3	104
CC(C)(C)NC(=O)c1cccc(NC(=O)c2ccc(NC(=O)c3ccco3)cc2)c1	-1.1	i	0.79	100*	137*	-14	100
CCCCCN=CC1=C(O)CC(c2ccccc2)CC1=O (centres undefined)	nt	i	0.97	nt	nt	4	98
CCCCCCSc1nsc(NC(C)=O)n1	-1.8	i	1	-71	117	-9	103
CCOCCn1c(CN2CCN(C)CC2)nc2c1c(=O)n(C)c(=O)n2C	nt	i	0.97	nt	nt	nt	95
CC(=O)c1ccc(NC(=O)c2cnn3c(C(F)F)cc(C4CC4)nc23)cc1	-1.9	i	0.94	62	119	-6	nt
COC(=O)C1=C(C)N(C)C(C)=C(C(=O)OC)C1c1ccccc1C	-0.8	i	0.93	nt	nt	-8	100
NC(=O)C1CCN(C(=O)C2CCN(S(=O)(=O)c3ccccc3)CC2)CC1	-1.5	i	0.91	nt	nt	-3	110
COc1ccc(/C=C/C(=O)Nc2ccccc2C(F)(F)F)cc1OC	-2.2	nt	nt	37	117	-1	101
O=C(COc1ccc(Cl)cc1Cl)NC(=S)Nc1ccc(CN2CCOCC2)cc1	nt	i	1.3	nt	nt	nt	91
COc1cc2c(cc1O)C(Cc1ccc(O)cc1)NCC2 (centres undefined)	-2.3	i	1.1	48	138	0	83
O=C(CC(=O)c1ccccc1)Nc1cccnc1Cl	-1.9	i	0.89	10	125	-2	75

Looked up by structure from above (4):
molecule	GALR2 ag	HSV augment	HSV augment primary fold	Insulin prom inh	Insulin prom inh cell count	PKD1 kinase inh	RGS16-Gao HTS
O=C(COc1ccc(Cl)cc1Cl)NC(=S)Nc1ccc(CN2CCOCC2)cc1	nt	i	1.3	nt	nt	nt	91
O=C(CC(=O)c1ccccc1)Nc1cccnc1Cl	-1.9	i	0.89	10	125	-2	75
CCn1ccnc1C(O)c1cccc(OC)c1 (centres undefined)	-0.4	i	0.76	nt	nt	-10	98
Nc1c(C(=O)NC2CC2)c2nc3ccccc3nc2n1-c1ccc2c(c1)OCO2	-0.6	i	0.82	-44	151	4	101

Carrying on:
molecule	GALR2 ag	HSV augment	HSV augment primary fold	Insulin prom inh	Insulin prom inh cell count	PKD1 kinase inh	RGS16-Gao HTS
CSc1nc2ccc(Nc3nc(N4CCOCC4)nc(N4CCOCC4)n3)cc2s1	-2.2	i	0.83	nt	nt	-2	102
CCS(=O)(=O)N1CCN(c2ccc([N+](=O)[O-])c(NC(C)c3ccccc3)c2)CC1 (centres undefined)	-0.8	i	0.96	3	89	-13	101
COC(=O)c1c(NC(=O)COc2ncnc3ccccc23)sc(C)c1C	1.0	i	0.94	nt	nt	-5	99
CCCc1ccc(OCc2ccc(C(=O)O)o2)c(OC)c1	-1.9	i	1.1	-15	78	-7	102
CCn1c(=O)cc(OCC(=O)Nc2ccc(OC)c(OC)c2)c2ccccc21	nt	i	0.96	0	89	3	103
COc1ccc(C(=O)Nc2ccc(-c3cn4ccsc4n3)cc2)cc1S(=O)(=O)N1CCOCC1	1.1	i	0.69	-76	105	-3	-56*
COCC(=O)Nc1ccc(F)cc1	nt	i	0.97	nt	nt	-4	101
N=c1n(CC(=O)c2ccc(Br)s2)c2ccccc2n1Cc1ccccc1	nt	i	0.67	nt	nt	nt	105
O=c1[nH]c(/C=C2\C=Nc3ccccc32)c(O)n1Cc1ccccc1F	nt	i	0.78	nt	nt	4	97
COc1cc(/C=N/NC(=O)c2ccccc2O)ccc1OC(=O)CC1SC(=O)NC1=O (centres undefined)	nt	i	0.85	nt	nt	nt	96
C/C(CCc1ccc2c(c1)OCO2)=N\N=C(/N)SC1CC(=O)N(c2ccccc2F)C1=O (centres undefined)	-2.8	i	0.89	-21	114	-2	127
Cc1cccc(N2CCN(CC(=O)Nc3nccs3)CC2)c1C	-1.5	i	0.8	33	88	6	100
COC(=O)c1cccnc1NC(=S)NNC(=O)c1ccccc1	-2.3	i	0.87	7	83	2	122
O=C(Nc1cccc(S(=O)(=O)N2CCOCC2)c1)c1ccc(Cl)c([N+](=O)[O-])c1	nt	i	0.98	nt	nt	-2	107
Cc1ccc(S(=O)(=O)N(CC#N)CC#N)cc1	nt	i	0.99	-50	101	-3	112
CCOC(=O)C1=C(CNCc2ccc(F)cc2)NC(=O)NC1c1cccc([N+](=O)[O-])c1 (centres undefined)	nt	i	0.97	nt	nt	0	109
S=c1[nH]nc(-c2ccccc2)n1Cc1ccccc1	-3.0	i	0.98	nt	nt	-14	92
COc1cc(/C=N/NC(N)=S)ccc1OCC(=O)Nc1ccc(C)c(C)c1	-1.9	i	0.84	50	122	-2	98
O=C(NCCCn1ccnc1)c1ccc(S(=O)(=O)N2CCCCCC2)cc1	-0.7	i	0.9	-19	79	-5	85

Compound activity: PubChem BioAssay, several laboratories
